Source: PubChem (National Center for Advancing Translational Sciences (NCATS))
Rango release inh: inhibition of RanGTP-driven Rango-importin beta dissociation. Potency, µM (highest dose often 46.1 µM), inactives show at the top dose activity change, negative = inhibition. AID 540253. Biochemical FRET Rango-importin beta, RanGTP-induced dissociation. actives 0.071% (n = 340,000); active means falling FRET ratio curve, often poorly fitted, with flat reads before Ran was added; inconclusive means other falling curves, or compound fluorescence or quenching; inactive means flat or rising ratio curve;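 further: potency means the concentration at half of the fitted maximal effect; % of control where 0% means no effect; nearly all actives have a fitted effect of over 45% in size; -100% = wells without RanGTP and RCC1; the record marks most hits as doubtful in a second field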
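Rango/importin beta premix (0.1/0.25 uM final), PBS + 1 mM DTT + 0.02% Tween-20 + 0.1% BSA; cpd 5 min RT; FRET pre-read; + RanGTP-RCC1 (0.6 uM Ran, 2 mM GTP, 0.2 uM RCC1); 45 min RT; FRET post-read, ex 430, em 486/530 nm.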
miR-21 FLuc: miR-21 reporter, rising signal. HeLa miR-21 FLuc reporter, luciferase, 48 h. Potency, µM (doses to about 38.3 µM), for the others: top-dose reporter change, positive = more light. 340,000 tested, under 10 active. AID 2288; active = well fitted rising curve with a large enough effect; inconclusive = small, poorly fitted or top-dose-only effect; inactive = no such curve, though single readings can be large or run the other way;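 further: % of control where 0% means no effect; miR-21 action dims this reporter so a rising signal means less miR-21 action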
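HeLa miR-21-FLuc reporter line, endogenous miR-21; 2000 cells/well in DMEM/10% FBS; compound titration up to ~40uM final, 48 h, 37 degree Celsius; luciferase detection reagent, 15 min lysis, CCD luminescence.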
Rango complex inh: Rango-importin beta binding inhibition; Rango CFP/YFP FRET sensor + importin beta, 45 min; Potency, µM (titrated, usually from 92.2 µM), without a hit: at the top dose inhibition of complex formation; AID 540263; actives 0.031% (n = 340,000); Q14974; active = rising FRET ratio curve, often small or poorly fitted; inconclusive = mostly compound fluorescence or quenching in the first reads; inactive = flat curves in all reads;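 further: potency means the concentration at half of the fitted maximal effect; 0% = DMSO wells and 100% = buffer wells lacking importin beta; nearly all actives have a fitted effect of over 15% in size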
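FRET biosensor (snurportin 1 IBB flanked by EYFP and cerulean), 50 nM, with compound 5 min, then 0.125 microM importin beta in PBS, 1 mM DTT, 0.02% Tween-20, 0.1% BSA. CFP/YFP ratio read after 45 min at room temperature; pre-read flags interference.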
GLA inh pH 4.5: blocks human alpha-galactosidase A at pH 4.5; activity change, negative = inhibition, % at 105 µM; 230,000 tested, under 10 active; purified enzyme, 4-MU-alpha-Gal fluorescence, pH 4.5; P06280; AID 1467; inconclusive = small, poorly fitted or top-dose-only inhibition, or a rising curve; inactive = flat fitted curve, though single readings scatter; no compound was filed as active;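 further: 0% = full activity with enzyme and -100% = basal without enzyme; dose as in the result columns while the protocol names 77 µM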
Target sequence (P06280 whole entry, looked up): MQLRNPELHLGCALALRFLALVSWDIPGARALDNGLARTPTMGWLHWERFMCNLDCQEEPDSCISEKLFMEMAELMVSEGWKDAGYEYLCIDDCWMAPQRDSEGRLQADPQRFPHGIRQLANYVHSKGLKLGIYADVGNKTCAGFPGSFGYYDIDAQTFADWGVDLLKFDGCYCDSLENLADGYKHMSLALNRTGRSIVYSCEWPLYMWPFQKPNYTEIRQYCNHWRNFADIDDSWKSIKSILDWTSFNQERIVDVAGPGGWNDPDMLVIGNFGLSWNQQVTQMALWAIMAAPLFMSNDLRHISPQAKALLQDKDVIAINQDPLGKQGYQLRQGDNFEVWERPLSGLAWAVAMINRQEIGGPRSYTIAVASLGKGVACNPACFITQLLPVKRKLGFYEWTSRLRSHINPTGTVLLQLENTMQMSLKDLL
Numbers without * were called inactive; u = inconclusive; x = not tested or not shown; & = joins results of further samples. A portion of the library, so the mix of outcomes need not match the whole.

nr	Rango release inh	miR-21 FLuc	Rango complex inh	GLA inh pH 4.5	molecule
1	7%	4%	4.8%	0	NC(=O)[C@@H]1CC2(CC(c3cccc(NC(=O)[C@H]4CCC(=O)N4)c3)=NO2)CN1C(=O)COc1ccc(Cl)cc1 (some centres undefined)
2	2%	-1%	1.2%	3	O=[N+]([O-])c1cccc(P(=O)(O)c2cccc([N+](=O)[O-])c2)c1
3	-2%	-1%	0.8%	-4	COc1ccc(-n2nccc2-c2nn(-c3cccc(OC)c3)c(=O)n(C)c2=O)cc1
4	7%	-2%	u	x	CCN(CCCNC(=O)c1nn(C)c2c1CS(=O)(=O)c1ccccc1-2)Cc1ccccc1
5	-3%	19%	-0.7%	-9	Cc1ccc(S(=O)(=O)N(C)C)cc1NC(=S)NC(C)CCC(C)C (centres undefined)
6	0%	-9%	u	3	CCN1C(=O)/C(=C2\Sc3ccccc3N2CC)OC1=S
7	1%	-2%	-1.8%	x	O=C(Nc1ccccc1-c1ccccc1)c1ccccc1Br
8	11%	0%	0.0%	-7	c1ccc(-c2noc(CN3CCCC(OCc4ccccn4)C3)n2)cc1 (centres undefined)
9	15%	x	-2.8%	x	CCOc1ccc(OCC(=O)OCC(=O)NNC(=O)c2ccc([N+](=O)[O-])cc2)cc1
10	17%	1%	3.2%	-7	CCOc1ccc(OCC)c(NC(=O)CCS(=O)(=O)c2ccc(Br)s2)c1
11	11%	4%	7.5%	x	O=C(NCCN1CCOCC1)c1ccc(Cl)c(S(=O)(=O)N2CCCCC2)c1
12	-4%	-3%	4.5%	-1	Cn1c(Cn2c(=O)sc3ccccc32)nnc1SCc1ccccc1
13	-2%	-6%	-0.2%	1	COc1ccc(NC(=O)c2ccc(NCCN3C(=O)CCC3=O)c([N+](=O)[O-])c2)cc1
14	-7%	-11%	-2.7%	x	Cc1ccc(-c2cc(NC(=O)c3ccccc3[N+](=O)[O-])n[nH]2)cc1
15	-1%	2%	-0.1%	-3	O=C(O)CCNC(=O)c1ccc(NC(=O)Cc2ccc(Cl)cc2)cc1
16	3%	-2%	-0.8%	-2	CCCc1cc(C(=O)OC)c2ccccc2n1
17	28%	-17%	4.8%	x	Cc1occc1C(=O)N/N=C/c1ccc(-c2ccccc2)cc1
18	-7%	1%	2.2%	x	Cc1ccc(S(=O)(=O)N2CCC(C(=O)NC3CCCCC3C)CC2)cc1 (centres undefined)
19	4%	x	1.7%	x	O=CN(Cc1ccccc1)c1cc([N+](=O)[O-])ccc1OCc1ccccc1
20	-12%	-2%	4.1%	-7	CCn1c(CSc2ncccn2)nnc1SCC(=O)N1CCc2ccccc21
21	8%	-46%	-4.2%	-6	Clc1nnc(N/N=C/c2ccccc2)c2ccccc12
22	-7%	-35%	4.6%	0	O=C(Nc1ccc(N2CCOCC2)cc1)NC1CCCCC1
23	-1%	0%	0.0%	9	O=c1cc(N2CCCC2)c(-c2ccccc2)n[nH]1
24	0%	-7%	-1.4%	1	CNc1ccc(Br)cc1C(O)c1ccccc1 (centres undefined)
25	8.2µM*	0%	u	x	COc1cc(/C=C2/C(=N)N3C(=NC2=O)SN=C3S(=O)(=O)C(C)C)ccc1OC(=O)c1ccco1
26	3%	x	5.1%	x	COc1ccccc1COC(=O)c1ccc(S(=O)(=O)N2CCOCC2)cc1
27	10%	-1%	0.2%	3	Cn1c(SCC(=O)N2CCN(c3ccccc3)CC2)nnc1-c1cc2ccccc2o1
28	0%	6%	2.9%	1	O=C(Cc1ccc(-n2c(=O)[nH]c3ccccc3c2=O)cc1)N1CCN(c2ccccc2)CC1
29	6%	-6%	1.4%	x	CCN1CCN(CCCNC(=O)c2ccc3c(c2)N(Cc2ccccc2)CCS3)CC1
30	3%	-10%	1.0%	1	O=C(Nc1ccc2c(c1)CCC2)c1cc(S(=O)(=O)Nc2ccc(F)cc2)c(Cl)cc1Cl
31	26%	-11%	2.8%	6	CN(C(=O)c1cccnc1)c1nnc(-c2cccnc2)s1
32	34%	-7%	3.9%	6	COc1ccc(CN2C(=O)c3ccccc3C2C(=O)NC2CCC(C)CC2)c(OC)c1 (centres undefined)
33	-5%	0%	-0.3%	4	COc1cc(-c2nnc(Cn3cc(C(F)(F)F)ccc3=O)o2)cc(OC)c1OC
34	-7%	-4%	0.2%	5	Cc1ccsc1-c1nc(CN(C)C(C2CC2)C2CC2)c(C)o1
35	1%	9%	-5.4%	-4	O=c1[nH]ncc(N2CCN(Cc3ccccc3)CC2)c1Cl
36	-2%	0%	u	2	O=C(O)C1C2C=CC3(CN(CC(O)COc4ccccc4)C(=O)C13)O2 (centres undefined)
37	26%	7%	2.0%	1	Cc1cccc(C(=O)N[C@H](C(=O)Nc2cccc(S(=O)(=O)N3CCCC3)c2)C(C)C)c1
38	2%	-16%	-1.5%	1	Cc1ccc(Cl)cc1NC(=O)c1ccc(CSc2nnnn2C)cc1
39	7%	-4%	-0.2%	6	CC(C)(/C=N/NC(=O)CSCc1ccc(Cl)cc1)CCC#N
40	6%	-7%	u	3	CC(C)(C)c1nn2cnnc2n(/N=C/c2cccc3ccccc23)c1=O
41	12%	-1%	-1.5%	2	COc1ccc(C(=O)Nc2ccc3oc(-c4cccc(Cl)c4)cc(=O)c3c2O)cc1
42	-8%	-6%	-2.4%	-9	COCCn1nnnc1C(c1ccccc1)N1CCN(c2ccccc2)CC1 (centres undefined)
43	0%	x	-2.9%	x	CCCN(C(=O)c1cccc(-n2cccc2)c1)c1c(N)n(Cc2ccccc2)c(=O)[nH]c1=O
44	1%	0%	0.9%	x	Cc1nn(CC(=O)NCCCN2CCCC2)c(=O)c2nn(-c3ccccc3)c(C)c12
45	u	-1%	u	4	Cc1ccc(N=Cc2cc(Cl)cc(Cl)c2O)nc1
46	-7%	x	-3.1%	x	OCC[C@H]1C[C@H](O)[C@@H](O)[C@@]2(CCc3ccccc3CO2)O1
47	0%	-23%	3.4%	x	Cc1cc(Cl)ccc1OCC(=O)NNC(=O)c1ccco1
48	-4%	17%	0.1%	x	COc1ccc(CN(C(=O)c2snc(C(N)=O)c2N)C(CC(C)C)C(=O)NC2CCCCC2)cc1 (centres undefined)
49	6%	-5%	5.2%	-8	Clc1ccc(OCc2nn3c(C4CCCCC4)nnc3s2)c(Cl)c1
50	-5%	-3%	0.0%	2	Fc1ccc(N2CCN(C(c3cccs3)c3nnnn3CCc3ccccc3)CC2)cc1 (centres undefined)
51	-18%	9%	0.2%	-4	CCOC(=O)CSCC(=O)N1N=C(c2cccs2)CC1c1ccc(F)cc1 (centres undefined)
52	u	-1%	u	-1	COc1cc(CC(=O)Nc2ncc(C)s2)cc(OC)c1OC
53	2%	0%	5.0%	-1	O=C(c1ccccn1)c1ncc(C(F)(F)F)cc1Cl
54	-3%	-4%	-1.5%	5	O=C1CSC2=NCN(c3ccccc3)CN12
55	21%	-57%	0.1%	-4	CC(=O)Nc1nc(N(C)C)nc(N(C)C)n1
56	-7%	8%	1.8%	x	COc1cc(C(=S)N2CCOCC2)cc(Br)c1OS(=O)(=O)c1ccccc1

(further entries)
nr	Rango release inh	miR-21 FLuc	Rango complex inh	GLA inh pH 4.5	molecule
57	3%	-2%	0.4%	9	Fc1ccc(C2CC(c3cccs3)=NN2C(=S)Nc2ccccc2)cc1 (centres undefined)
58	0%	0%	3.4%	-2	CCNC(=S)N1CCN(CC)CC1
59	-1%	-21%	-0.5%	-11	Cn1c(=O)n(C)c2cc(C(=O)Nc3ccc4c(c3)OCO4)ccc21
60	5%	x	0.4%	x	COc1ccccc1C(CNC(=O)c1cccc(S(=O)(=O)Nc2ccc(C)cc2)c1)N1CCCC1 (centres undefined)
61	1%	2%	1.0%	-2	N=c1sccn1CC(=O)N1CCc2ccccc21
62	1%	-2%	-2.0%	-19	Nc1ccc(C#Cc2ccccc2)cc1
63	-10%	6%	0.3%	-4	Cc1ccc(C(=O)N/N=C/c2cn(Cc3ccccc3)c3ccccc23)cn1
64	-2%	14%	-0.3%	4	Cc1c(CCOC(=O)CC23CC4CC(CC(C4)C2)C3)sc[n+]1CC(=O)c1ccc(Br)cc1
65	15%	-1%	-2.9%	0	Cc1cc(C)c[n+](-c2nc([O-])sc2C=O)c1
66	-8%	-11%&-12%	-2.8%	-1&-2	CC(C)(C)c1ccc(OCC(=O)O)cc1
67	-4%	-20%	3.0%	-2	Cc1cc(C)cc(NC(=O)CSc2ccccc2)c1
68	-3%	-11%	0.5%	-4	CCOC(=O)c1cc(-c2ccccc2)nn1-c1ccccn1
69	9%	-57%	-2.4%	x	O=C(O)c1cc(-n2[nH]c(=O)c3ccccc3c2=O)ccc1Cl
70	u	x	u	x	CCC(CO)Oc1cc(NCc2ccc(C(F)(F)F)cc2)c2ncn(C(C)C)c2c1 (centres undefined)
71	0%	-8%	0.7%	-6	CCCc1nc2oc3c(NCCN4CCOCC4)ncnc3c2c2c1CCCC2
72	20%	-2%	0.0%	4	CCn1c(SCC(=O)OC(C)C)nnc1-c1cccc(Cl)c1
73	-3%	-33%	-4.7%	-2	c1ccc(OCCOCCSc2ncccn2)cc1
74	3%	x	1.1%	x	N#Cc1ccccc1COC(=O)CCC(=O)c1cccs1
75	18%	-1%	0.0%	3	COc1ccc(NC(=O)CC2SC(=NCC3CCCO3)NC2=O)c([N+](=O)[O-])c1 (centres undefined)
76	1%	0%	0.1%	7	O=C(C1CCCN(Cc2ccccc2)C1)N1CCCCC1 (centres undefined)
77	6%	5%	-0.2%	-9	N#Cc1ccc(OCC(=O)NCCc2ccccn2)cc1
78	-14%	-2%	3.6%	3	CC(C)c1ccc(C2N3CC4([N+](=O)[O-])CN2CC([N+](=O)[O-])(C3)C4(C)C)cc1 (centres undefined)
79	15%	2%	u	-1	COc1ccc(C2(CNC(=O)CCC(=O)O)CCCC2)cc1OC
80	1%	-11%	17%	1	CC(C)(C)c1cccc(Oc2nn[nH]n2)c1
81	6%	-1%	0.0%	x	O=Cc1ccccc1-c1cn(CCCOCc2ccccc2)nn1
82	x	-5%	x	-9	CC(C)CNC(=O)c1ccc(Cl)c(N)c1
83	-8%	1%	u	x	Cc1cc(=O)n2nc(N3CCCC(C(=O)NCCc4ccc(Cl)cc4)C3)sc2n1 (centres undefined)
84	-8%	-3%	-2.5%	-5	O=C(Nc1ccc2ccccc2c1)/C(=C/c1cccc(Br)c1)NC(=O)c1ccco1
85	-3%	-35%	-3.0%	6	Cc1cc(C)cc(OCC(=O)Nc2ccc3c(c2)C(=O)c2ccccc2C3=O)c1
86	13%	-4%	0.5%	9	Cc1ccc(S(=O)(=O)N2CC3(C)CN(S(=O)(=O)c4ccc(C)cc4)CC(C)(C2)C3=O)cc1
87	7%	1%	3.9%	-7	CC1(C)CC2CC(C)(CN2CC(O)COc2ccccc2)C1 (centres undefined)
88	-11%	-2%	1.7%	x	COc1cccc(Oc2ccc(C(F)(F)F)cc2NC(=O)C2=COCCO2)c1
89	1%	x	-0.8%	x	COc1cc(C(=O)OCC(=O)NC2CCCCC2)cc2c1OCCO2
